PABP FP inh: PABP poly(A) RNA binding inhibitors, primary screen, biochemical, fluorescence polarization, uHTS | 1% of 290,000 active | AID 2014, 2009 | inhibition, % at 35 µM;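 active = 50% or more with normal probe brightness, or confirmed in later tests; about a fifth of its hits are not listed in these tables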;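 note: calls also rest on retests at 20 µM and on dose response follow-up; controls were probe without protein and protein plus probe with vehicle; some compounds called inactive have numbers as strong as hits; many hits fall short of the cut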
HIV Env fusion: inhibitors of HIV-1 Env-driven cell-cell fusion, primary screen, HeLa-JRFL effector, CEM21 target cells, luciferase; inhibition, % at 12.3 µM; 1.1% of 360,000 active; AID 651610, 2012;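 active = mean replicate inhibition score of at least 50 and every replicate individually at or above 50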;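 note: 0% = plate neutral controls and 100% = maraviroc near 300 nM; one replicate is shown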
MT1-MMP act inh: blockers of MT1-MMP proenzyme processing, primary screen, HT1080 RFP-PRO-GFP cells, GFP/RFP fluorescence; GFP/RFP ratio change, % at 20 µM; Matrix metalloproteinase-14 (Homo sapiens), P50281; GFP/RFP ratio fluorescence, overnight; percent of plate control window, DMSO zero; 0.061% of 360,000 active; AID 651647, 2012;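 active = GFP/RFP ratio change of at least 30% with cell ATP level not reduced by more than half and red fluorescence within 50% of control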; note: strong numbers were not always called active
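Test system: HT1080 cells expressing an RFP-PRO-GFP fluorescent reporter construct / Compound dosing: single-point 20 µM compound, 1% DMSO / Schedule: cells overnight before dosing, compound overnight, 37 °C, 5% CO2 / Evaluation: GFP/RFP fluorescence ratio / Control set: DMSO and RFP-L50D-GFP cell wells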
UUG fidelity: modulators of yeast start codon fidelity, primary screen, whole organism, S. cerevisiae, single point, plate reader; S. cerevisiae UUG-firefly luciferase reporter, luminescence/redox ratio; activity score, % at 18.7 µM; 0.13% of 350,000 active; AID 602363, 2012;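 active = replicate mean at a twofold rise or more, about +100% in these data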;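 note: firefly luciferase made from a UUG start codon reports start codon fidelity; reporter light over untreated wells divided by growth signal over untreated wells; some hits fall short of that in this replicate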
Rce1 inh: yeast Rce1p protease inhibitors, primary screen, biochemical, fluorescence, cell-free homogeneous. CAAX prenyl protease 2 (Saccharomyces cerevisiae (strain ATCC 204508 / S288c)), Q03530. yeast membranes, quenched prenylated peptide cleavage fluorescence. calls only. 0.27% of 290,000 active. AID 2563, 2010;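 active = fall in fluorescence gain of 50% or more versus controls, with final raw signal at or below 3038400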;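 note: plate controls were neutral control wells for no effect and wells lacking membranes for full effect; tested at 10 µM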
Target sequence (Q03530 whole entry, looked up): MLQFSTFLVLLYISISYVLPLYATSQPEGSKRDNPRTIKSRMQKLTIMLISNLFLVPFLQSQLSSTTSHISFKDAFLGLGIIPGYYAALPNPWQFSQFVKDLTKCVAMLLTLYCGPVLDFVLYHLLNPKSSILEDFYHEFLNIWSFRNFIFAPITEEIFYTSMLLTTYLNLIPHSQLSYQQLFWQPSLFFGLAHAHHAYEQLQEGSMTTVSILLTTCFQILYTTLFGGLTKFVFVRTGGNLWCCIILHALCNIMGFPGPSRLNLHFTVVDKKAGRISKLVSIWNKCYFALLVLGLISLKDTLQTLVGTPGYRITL
CSC inhib: cancer stem cell viability inhibitors, primary screen, luminescence. cancer stem cell-like cells viability. inhibition, % at 7.5 µM. 1.1% of 300,000 active. AID 2717, 2010;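 active = mean at 75% or more and at least half the replicates too; tested in HMLE shEcad cells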;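 note: 0% = median of negative and 100% = median of positive control wells; the first replicate is given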
eIF4H FP inh: human eIF4H binding inhibitors, primary screen, translation initiation inhibitor project, biochemical, uHTS, fluorescence polarization | Eukaryotic translation initiation factor 4H (Homo sapiens), Q15056 | eIF4H fluorescence polarization binding assay | inhibition, % at 35 µM | 0.94% of 290,000 active;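 active = 50% or more with normal probe brightness, or confirmed in later tests; about a fifth of its hits are not listed in these tables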;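 note: calls also rest on retests at 20 µM and on dose response follow-up; 0% = protein and probe with vehicle and 100% = probe without protein; strong numbers were not always called active; many hits fall short of the cut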
eIF4H FP inh retest: recorded beside eIF4H FP inh, whose call it bears; inhibition, %; compound at 20 µM; confirmation average;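 mean of two retest wells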
PABP FP inh retest: also measured in PABP FP inh; calls as there; inhibition, %; compound at 20 µM; confirmation repeats;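 mean of two retest wells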
MT1-MMP act inh RFP: also measured in MT1-MMP act inh; calls as there; RFP signal change, %; measured here: RFP expression control read;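 0 = vehicle wells; hits needed this value within 50% of zero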
Starred values were filed as active, the others as inactive; i = inactive; . = no result given.

SMILES | PABP FP inh | HIV Env fusion | MT1-MMP act inh | MT1-MMP act inh RFP | UUG fidelity | Rce1 inh | CSC inhib | eIF4H FP inh | others
Cc1ccc(NC(=O)CNCc2ccccc2)cc1Br | -3.4 | -8.7 | -6.5 | -10.4 | -10.5 | i | -3.1 | 10.6
O=C(CSCCO)Nc1ccc(C2CCCCC2)cc1 | -11.4 | 36.1 | -4.3 | 2.1 | -16.0 | . | -7.4 | 4.4
C/C(=N\NC(=O)C(N)=O)c1ccc2c(c1)OCCO2 | 7.4 | 3.9 | 1.9 | 3.4 | . | i | 0.2 | -1.3
CCCCN1CNC(=S)N(CCc2ccccc2)C1 | -10.9 | . | 4.7 | 3.4 | -32.4 | i | -10.7 | -3.5
CN(c1ccccc1)S(=O)(=O)c1ccc(C(=O)Nc2nccs2)cc1 | -0.9 | 10.3 | 1.6 | -12.1 | -4.5 | i | -10.0 | 0.4
CC1Oc2ccccc2N(CC(=O)NCC2CCCO2)C1=O (stereo unspecified) | 0.3 | -20.3 | 0.2 | -2.0 | -4.2 | i | -0.3 | -4.8
COC(=O)c1cccc(Cn2c(Cl)c(/C=N/NC(=O)c3ccccc3Cl)sc2=O)c1 | -14.0 | -4.9 | 1.9 | 0.4 | -9.4 | i | -4.3 | -1.4
CN(C)CCC#CC(O)(c1ccccc1)c1ccccc1 | 75.7* | -23.6 | -0.4 | 5.3 | -5.6 | i | -9.4 | 6.6* | eIF4H FP inh retest=101.8*;PABP FP inh retest=92.8*
O=C(Nc1cccc(Cl)c1)C1CC1c1ccccc1 (stereo unspecified) | . | 19.5 | -2.4 | 0.6 | . | i | 8.0 | .
CCOc1ccc(CCNC(=O)CN2C(=O)c3cccnc3Oc3ccc(Cl)cc32)cc1 | -10.5 | 11.8 | -6.5 | -3.8 | 3.2 | i | -13.9 | -7.9
Cc1ccc(N2C(=O)CC(NNC(=O)Cc3ccc(F)cc3)C2=O)cc1Cl (stereo unspecified) | -2.0 | 0.4 | 2.1 | 5.9 | -15.6 | i | 6.0 | 3.4
O=C(/C(=N\O)n1cncn1)c1ccc(Cl)cc1Cl | -12.0 | 7.0 | 1.8 | 2.4 | . | i | -9.0 | -11.8

The closing four records of the part above are carried over, then new ones follow.
SMILES | PABP FP inh | HIV Env fusion | MT1-MMP act inh | MT1-MMP act inh RFP | UUG fidelity | Rce1 inh | CSC inhib | eIF4H FP inh | others
O=C(Nc1cccc(Cl)c1)C1CC1c1ccccc1 (stereo unspecified) | . | 19.5 | -2.4 | 0.6 | . | i | 8.0 | .
CCOc1ccc(CCNC(=O)CN2C(=O)c3cccnc3Oc3ccc(Cl)cc32)cc1 | -10.5 | 11.8 | -6.5 | -3.8 | 3.2 | i | -13.9 | -7.9
Cc1ccc(N2C(=O)CC(NNC(=O)Cc3ccc(F)cc3)C2=O)cc1Cl (stereo unspecified) | -2.0 | 0.4 | 2.1 | 5.9 | -15.6 | i | 6.0 | 3.4
O=C(/C(=N\O)n1cncn1)c1ccc(Cl)cc1Cl | -12.0 | 7.0 | 1.8 | 2.4 | . | i | -9.0 | -11.8
Cc1ccc(-n2c(-c3nn(C)cc3Cl)n[nH]c2=S)cc1 | 4.1 | 1.4 | -0.7 | 2.1 | . | i | -8.9 | -1.0
COC(=O)c1cc(Cl)c(NC(=O)c2ccc(C(C)(C)C)cc2)cc1OC | -3.2 | -34.5 | 3.8 | -5.1 | -24.9 | i | 29.2 | 9.2
O=C(COC(=O)c1cc(Cl)nc2ccccc12)c1ccc(Cl)cc1 | -5.7 | -11.3 | -3.1 | 4.7 | -11.4 | i | -9.5 | 6.2
Cc1cc(Br)c(Oc2cc(NN3CCCCC3)c([N+](=O)[O-])cc2[N+](=O)[O-])c(Br)c1 | . | 28.3 | -2.2 | -1.9 | -20.7 | . | . | .
COc1ccc(C(CNC(=O)c2nn(-c3ccccc3)c(=O)c3ccccc23)N2CCOCC2)cc1 (stereo unspecified) | . | -2.2 | 4.1 | -1.9 | -9.2 | . | . | .
O=C(OCc1nc2ccccc2s1)C1CCN(S(=O)(=O)c2cccs2)CC1 | -4.1 | -46.6 | 1.5 | 3.7 | -3.1 | i | -2.2 | -4.1
CCOP(=O)(O)c1ccccc1OCCCCCOc1ccccc1P(=O)(O)OCC | 2.0 | . | 0.2 | 6.7 | 1.5 | i | . | -7.5
COc1ccc(-n2c(Cc3cccn3C)nnc2SCC(=O)NCc2ccc(F)cc2)cc1 | -10.8 | -7.7 | 7.6 | 4.2 | 1.6 | i | 3.4 | -9.6
Oc1[nH]c(=S)sc1/C=C1\C(c2ccccc2)=Nc2ccccc21 | 6.7 | . | -69.3 | 7.1 | . | i | 48.4 | 56.9* | eIF4H FP inh retest=94.9*;PABP FP inh retest=44.9
Cc1ccc(NC(=O)c2ccccc2)cc1OC(=O)c1ccccc1 | -6.6 | . | 8.5 | 5.1 | -0.8 | i | 8.1 | -9.2
CC(C)N1CCN(Cc2cccs2)CC1CCO (stereo unspecified) | -9.7 | 1.0 | -0.7 | 3.4 | . | i | . | -2.9
COc1ccc(C(C)C)cc1S(=O)(=O)NC1CCCC1 | -0.6 | 21.3 | 0.6 | -1.3 | 32.1 | i | 20.4 | -11.2
CCOC(=O)c1sc2cc([N+](=O)[O-])cc(SCCO)c2c1N | -9.2 | -22.5 | -21.2 | 3.7 | . | i | -6.8 | -4.9
CCSc1nc2sc3c(c2c(=O)n1C1CCCCC1)CCN(C)C3 | 17.9 | 17.8 | -8.5 | -1.6 | 2.4 | . | . | 11.1
CC1CC(=O)Nc2ccccc2N1 (stereo unspecified) | . | 2.0 | 1.5 | -0.5 | -1.2 | . | . | .
CCN(CC)c1ccc(N2C(=O)/C(=C/c3cccnc3)SC2=S)cc1 | -3.1 | -104.4 | 10.5 | 8.7 | 3.4 | i | 15.5 | -10.5
Cc1ccc2nc3c(c(N)c2c1)CCN3c1ccccc1 | 46.6 | -128.9 | 7.8 | 1.6 | -6.1 | i | 4.4 | 51.1* | eIF4H FP inh retest=55.8*;PABP FP inh retest=47.7
COc1ccc(/C=C/C(=O)NC(=S)NNC(=O)c2cc(OC)c(OC)c(OC)c2)cc1OC | -3.6 | 13.9 | 8.3 | -0.7 | -28.5 | i | -3.2 | 18.5
CCCCc1cc(=O)oc2c(C)c(OCC(=O)NCCN3CCOCC3)ccc12 | -2.0 | 2.5 | -2.9 | 1.6 | -7.7 | i | 3.6 | -24.1
Cc1ccc(S(=O)(=O)N/N=C/c2ccc(OCC(=O)NC(C)C)cc2)cc1 | . | . | 2.3 | 1.7 | -1.9 | i | 4.9 | .
O=C(Cc1ccc(F)cc1)Oc1ccc(C(=S)N2CCCC2)cc1 | -2.2 | . | 1.9 | -2.2 | -24.0 | i | -15.8 | -4.8
O=C(CSc1nnnn1-c1ccc(Cl)cc1)NC1CCS(=O)(=O)C1 (stereo unspecified) | . | . | 0.7 | 0.3 | -5.8 | . | -24.8 | .
CCc1ccc(C2CC(=O)N3CN(c4ccccc4)CSC3=C2C#N)cc1 (stereo unspecified) | 48.0 | -10.5 | -1.6 | 1.6 | -1.5 | i | 5.0 | -0.1
Nc1c2c(nc3cccc(Cl)c13)N(c1ccccc1)CC2 | 16.7 | -39.0 | -5.1 | -1.8 | . | i | -13.7 | 14.2
CCOC(=O)c1nn(-c2ccccc2F)c2nc(-c3ccco3)c(C#N)c(=O)n12 | 4.8 | -21.2 | -0.7 | 2.5 | . | i | 0.0 | 6.8
CCOC(=O)c1ccc(NC(=O)C2(c3ccccc3)CCOCC2)cc1 | -18.9 | . | -4.4 | -2.6 | . | i | -17.8 | -0.7
Clc1ncccc1-c1nnn(-c2ccccc2Br)n1 | -5.4 | -54.6 | -0.9 | 2.5 | -11.7 | i | -5.4 | -21.1
CCC(CC)NC(=O)Cc1ccccc1[N+](=O)[O-] | -4.8 | . | -1.6 | 2.0 | . | i | -3.3 | -6.4
O=C(CCC1CCCN(C(=O)c2cncs2)C1)NCc1ccc(F)c(F)c1 (stereo unspecified) | 7.3 | 11.9 | -0.9 | 2.7 | 1.2 | . | -5.5 | 1.9
CCCCCCN=C(C)c1ccccc1O | -0.4 | -7.6 | -0.4 | -0.7 | 2.8 | i | -10.5 | 2.0
CCN1C(=O)[C@H]2[C@@H](c3ccc(C)cc3)N3C(=O)N(c4ccc(C)cc4)C(=O)[C@@]3(Cc3ccc(Cl)cc3)[C@H]2C1=O | -0.1 | -9.7 | -2.1 | -5.5 | 2.4 | i | -6.2 | 2.4
CCOc1ccccc1N(CC(=O)Nc1ccc(S(=O)(=O)N2CCOCC2)cc1)S(C)(=O)=O | 2.0 | -40.1 | 0.6 | 1.2 | -3.5 | i | 0.0 | 3.4
COc1cccc(N(C(=O)CNC(=O)c2ccco2)C(C(=O)NC2CCCC2)c2ccco2)c1 (stereo unspecified) | 0.3 | -0.8 | -1.4 | 3.8 | -8.3 | i | 8.8 | 10.7
CCSc1nc2ccccc2n1S(=O)(=O)c1ccccc1 | 85.1 | 10.3 | 4.7 | 2.3 | -16.1 | . | 6.2 | -11.4 | eIF4H FP inh retest=-5.5;PABP FP inh retest=10.4
COc1ccc(CCN2CCCC(CN(C)C(=O)c3ccoc3)C2)cc1 (stereo unspecified) | 3.3 | -31.1 | -1.7 | 0.8 | -24.4 | i | 2.1 | -16.1
COc1ccc(OCCN(C)C(=O)c2cccc(S(=O)(=O)N(C)c3ccccc3)c2)cc1 | . | 19.8 | 3.1 | -6.7 | 1.8 | . | -3.4 | .
O=C1Nc2ccccc2C12NCCc1c2[nH]c2ccccc12 (stereo unspecified) | -8.2 | . | -3.0 | 1.6 | -8.0 | i | . | -11.6
CSc1nc2nc(-c3ccc(F)cc3)c(CCN3CCN(C)CC3)cn2n1 | 6.7 | -7.7 | 2.2 | 6.5 | . | i | -3.7 | 2.2
O=C(O)Cc1ccc(OCc2ccc(Cl)nc2)cc1 | -2.1 | -6.3 | 1.4 | 0.0 | . | i | 6.1 | -1.2
CCc1cc2c(cc3c(=O)n(CC(=O)NCCCN4CCCCCC4)nc(CC)n32)s1 | -5.9 | 4.4 | -4.3 | -4.0 | -12.1 | i | -2.1 | -0.9
CCc1nc2ccc(C(=O)Nc3ccc(NC(C)=O)cc3)cn2c1N(C)C(=O)Cc1ccccc1 | . | 5.1 | 0.8 | 5.5 | -5.7 | . | . | .
O=c1c2cccnc2[nH]c(=S)n1Cc1ccccc1 | 3.1 | 10.1 | 2.4 | 1.8 | . | i | . | -18.0
COc1ccc(N2CCN(C(=O)CCc3nc(-c4ccc(C)cc4)no3)CC2)cc1 | -5.6 | 15.3 | 3.1 | 0.4 | -12.5 | i | 2.2 | -4.7
CC/C(=N\NC(=O)c1c(C)nc2ccccn12)c1ccccc1 | -7.2 | 4.2 | -2.1 | -8.7 | -18.5 | i | -11.6 | -5.4
CCOC(=O)c1ccc(-c2ccc(/C=C(\C#N)C(=O)NCC3CCCO3)o2)cc1 (stereo unspecified) | 15.5 | -46.4 | 4.7 | -5.4 | -13.6 | i | 1.5 | 60.0 | eIF4H FP inh retest=5.2;PABP FP inh retest=32.6
